A1 inh = inhibitors of the anti-apoptotic protein A1, read as caspase activation | MEF A1-2A-BIM cells, Caspase-Glo 3/7 luminescence, 3 h; percent of clofoctol response, vehicle zero | caspase activation, % (concentration not given with the values) | 0.066% of 330,000 active | AID 2462;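 active = over half of replicate activation scores above 10%, or exactly half above 10 with the replicate mean above 10; inconclusive = replicate mean below 10 yet half the replicates above 10; inactive = over half of replicates below 10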;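 note: wells of about 30 µL received 50 nL stock; many hits fall short of the cut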
Beta apoptosis = beta cell apoptosis inhibition. AID 435005. 0.8% of 300,000 active. INS-1E cytokine-induced death, ATP luminescence, 48 h; percent of positive-control rescue, neutral wells zero. protection from apoptosis, % (test concentration not listed);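 active = all replicates at 75% or more, or half of them and the mean; inconclusive = half reach 75% but not the mean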;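 note: 0% = cytokine-treated negative control wells and 100% = positive control rescue; higher means more ATP so stronger rescue from cytokine killing; wells of about 40 µL received 100 nL stock; the first replicate is given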
Calb FLC = C. albicans growth modulation with fluconazole; AID 1979; growth inhibition, % (no concentration beside the values); C. albicans CaCi-2 (fluconazole-resistant clinical isolate) + fluconazole, Alamar Blue growth, 48 h; 0.57% of 300,000 active;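 active = most replicates above 75%; inconclusive = exactly half above 75%; inactive = most below 75%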;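 note: all wells also contain fluconazole at 8 µg/ml as a sub-toxic cotreatment; 0% = median of DMSO wells and 100% = median of geldanamycin control wells; wells of about 8 µL received 7.5 nL stock; the first replicate is given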
RanGTP-Imp inh = disruptors of Ran-importin-beta complex formation – biochemical, FRET, CFP-Ran, YFP-importin-beta, homogeneous, primary screen | cell-free CFP-Ran/YFP-importin-beta FRET ratio | inhibition, % (concentration not given with the values) | 1.1% of 300,000 active;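 active = most replicates above 15%; inconclusive = exactly half above 15%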;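 note: 0% = DMSO wells and 100% = Ran loaded with GDP instead of GTP; wells of about 40 µL received 100 nL stock; the first replicate is given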
rRNA inh HTS = inhibitors of bacterial rRNA selective over humanized ribosomes | E. coli WT GFP vs humanized-ribosome RFP mutants, fluorescence, 24 h; active compounds read low; DMSO median 0, no signal -100 | GFP signal change (wild-type ribosome), % (test concentration not listed) | 1.6% of 350,000 active | AID 720706;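 active = significant combined selectivity score with lowered wild-type GFP, culture density cut under 30%, mutant RFP and density less affected; inactive = any of these conditions unmet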; note: one replicate is shown; some compounds called inactive have numbers as strong as hits
AF4-AF9 inh = inhibitors of human MLL-AF4/AF9 interaction. AlphaScreen, biotin-AF4 peptide binding to FLAG-AF9. P42568. 0.47% of 350,000 active. inhibition, % at 10 µM;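 active = every replicate reaching a set inhibition limit, whatever the replicate mean, cut at about 25% in these data; inconclusive = mean inhibition reaches that limit but some replicates miss it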;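 note: 0% = plate neutral control median and 100% = total signal loss; the record names both 10 and 1 µM as test concentration; the first replicate is given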
Target sequence (P42568 whole entry, looked up): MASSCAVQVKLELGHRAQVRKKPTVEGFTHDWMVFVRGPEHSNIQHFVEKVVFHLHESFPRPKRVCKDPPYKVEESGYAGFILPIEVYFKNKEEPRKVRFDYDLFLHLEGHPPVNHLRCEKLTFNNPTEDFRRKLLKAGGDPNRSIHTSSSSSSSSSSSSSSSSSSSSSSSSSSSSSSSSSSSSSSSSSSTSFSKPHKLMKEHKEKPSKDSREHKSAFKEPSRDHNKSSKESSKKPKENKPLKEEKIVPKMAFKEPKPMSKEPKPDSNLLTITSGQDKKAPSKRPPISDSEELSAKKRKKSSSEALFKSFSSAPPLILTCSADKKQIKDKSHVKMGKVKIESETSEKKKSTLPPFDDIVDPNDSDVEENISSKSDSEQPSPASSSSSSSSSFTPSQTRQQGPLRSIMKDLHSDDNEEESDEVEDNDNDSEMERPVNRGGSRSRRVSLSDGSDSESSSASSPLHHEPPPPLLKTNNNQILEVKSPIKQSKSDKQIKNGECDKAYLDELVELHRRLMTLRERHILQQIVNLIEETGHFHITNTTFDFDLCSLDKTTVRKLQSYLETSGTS
Vif A3G = inhibitors of Vif binding to APOBEC3G peptide, primary screen, biochemical, TR-FRET, GST-Vif 1-94, biotin-A3G peptide, dose response retest (AID 1117319); one-dose inhibition, %; IC50 in µM for titrated hits; TR-FRET GST-Vif / biotin-A3G peptide binding; higher % means a stronger effect; test concentration not given here; strong numbers were not always called active; 0.57% of 260,000 active;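 active = above the screen mean plus three standard deviations and confirmed in dose response; inconclusive = results disagree or hit not tested in dose response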;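 note: Vif residues 1-94 fused to GST binding biotinylated APOBEC3G peptide 110-148; 0% = full assay without inhibitor and 100% = GST in place of GST-Vif; retest series ran down from 100 µM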
T cruzi inh = blocks replication of Trypanosoma cruzi; T. cruzi beta-gal in NIH3T3, luminescence, 90 h; AID 1885; inhibition, % (no concentration beside the values); 1.4% of 300,000 active;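 active = mean inhibition across valid replicates above about 55%, limit read from the data; inconclusive = mean below that limit but half or more replicates reach it; inactive = mean below it, under half of replicates reach it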;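 note: signal also drops with host cell toxicity which is not excluded here; 0% = plate median of DMSO wells and 100% = zero luminescence signal; higher percent means less beta-gal luminescence so fewer parasites; stock transfer was 50 nL into about 50 µL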
rRNA inh HTS OD600 = recorded beside rRNA inh HTS, whose call it bears; OD600 change, %; measured here: OD600 growth;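 optical density of the mix in the first replicate; 0 = DMSO median and -100 = no signal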
rRNA inh HTS RFP = second read-out of rRNA inh HTS, no call of its own (marks repeat the call); RFP signal change, %; measured here: RFP humanized mutant strains;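 first replicate; 0 = DMSO median and -100 = no signal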
* marks the source's active call; other numbers are inactive results; & = joins results of further samples. Some of the compounds tested; the hit share may differ from the screen's.

Cc1ccc(-c2nnc3ccc(SCC(=O)N4CCc5ccccc54)nn23)cc1 was read as Calb FLC 14.8, RanGTP-Imp inh -3.7, rRNA inh HTS 6.3, AF4-AF9 inh 3.7, Vif A3G 9.1%, T cruzi inh 0.1, rRNA inh HTS OD600 10.4 and rRNA inh HTS RFP -0.4.
Screening CN(c1ccc(OCC(=O)OCc2nnc(-c3ccccc3)o2)cc1)S(=O)(=O)c1ccc(Cl)cc1 returned A1 inh 0.5, Beta apoptosis 0.1, Calb FLC 12.7, RanGTP-Imp inh 3.5, rRNA inh HTS 0.4, AF4-AF9 inh -0.8, Vif A3G -15.4%, T cruzi inh -4.0, rRNA inh HTS OD600 0.5 and rRNA inh HTS RFP -0.7.
For Cc1cccc(N2CSC3=C(C#N)C(c4ccc(C)o4)CC(=O)N3C2)c1 (stereo not given) the results were A1 inh 0.9, Beta apoptosis 6.3, Calb FLC 0.3, RanGTP-Imp inh -5.5, Vif A3G 27.8% and T cruzi inh -7.0.
Screening COc1cc(NC(=O)c2sc3ncn(CC(=O)N4CCC(C)CC4)c(=O)c3c2C)cc(OC)c1OC returned A1 inh 0.6, Beta apoptosis 0.0, Calb FLC -8.8, RanGTP-Imp inh -0.2, rRNA inh HTS -6.3, AF4-AF9 inh -0.2, T cruzi inh 25.6, rRNA inh HTS OD600 -6.7 and rRNA inh HTS RFP 5.3.
CCCCCc1c(C)nc(N2CCc3ccccc3C2)[nH]c1=O was read as Calb FLC -0.2, RanGTP-Imp inh 5.9, Vif A3G 4.1% and T cruzi inh -12.0.
CCOC(=O)c1cnc(N2CCN(c3ccccc3)CC2)[nH]c1=O was read as Calb FLC -3.0, RanGTP-Imp inh -8.3, rRNA inh HTS 11.5, AF4-AF9 inh -1.5, T cruzi inh -8.1, rRNA inh HTS OD600 14.7 and rRNA inh HTS RFP 1.5.
Screening O=C(C1CCN(c2nc(-c3ccccc3)nc3c2CCC3)CC1)N1CCCC1 returned A1 inh 1.8, Beta apoptosis -2.9, Calb FLC 44.6, RanGTP-Imp inh 2.4, rRNA inh HTS 4.2, AF4-AF9 inh -1.0, T cruzi inh 13.8, rRNA inh HTS OD600 1.6 and rRNA inh HTS RFP -0.1.
C=CCNC(=O)[C@H]1N2C(=O)c3ccccc3C2SC1(C)C (stereo not given in full) was read as A1 inh 1.0, Beta apoptosis 2.1, Calb FLC -8.0, RanGTP-Imp inh inconclusive, rRNA inh HTS 13.1, AF4-AF9 inh 1.4, Vif A3G 5.7%, T cruzi inh -10.2, rRNA inh HTS OD600 12.5 and rRNA inh HTS RFP 1.7.
For O=C(Nc1cnn(Cc2ccc(Cl)cc2)c1)c1ccc([N+](=O)[O-])cc1 the results were A1 inh 0.1, Beta apoptosis 0.6, Calb FLC 2.7, RanGTP-Imp inh -3.7, Vif A3G -3.0% and T cruzi inh 4.1.
COc1ccc(OC)c(-n2nnnc2SCC(=O)Nc2nc(C)c(C)s2)c1 was read as A1 inh 0.6, Beta apoptosis -4.1, Calb FLC -4.6, RanGTP-Imp inh 0.9, Vif A3G -7.7% and T cruzi inh -6.9.
For Cc1ccc2nc(N/C(=N/S(=O)(=O)c3ccc(F)cc3F)c3ccccc3)sc2c1 the results were A1 inh 1.2, Beta apoptosis 7.1, Calb FLC -1.9, RanGTP-Imp inh -0.6, rRNA inh HTS -0.7, AF4-AF9 inh 5.2, Vif A3G 5.5%, T cruzi inh 4.1, rRNA inh HTS OD600 0.3 and rRNA inh HTS RFP -2.2.
CNC(=O)N1CCN(C(=O)NC)CC1 was read as A1 inh -0.6, Beta apoptosis -5.1, Calb FLC 1.0, RanGTP-Imp inh inconclusive, rRNA inh HTS 11.9, AF4-AF9 inh -5.3, Vif A3G -1.8%, T cruzi inh -6.0, rRNA inh HTS OD600 11.7 and rRNA inh HTS RFP 1.2.
COc1ccccc1OCC(=O)Nc1c2c(nn1-c1ccc(F)cc1)CS(=O)(=O)C2 was read as A1 inh 0.3, Calb FLC -2.9, RanGTP-Imp inh -5.3, rRNA inh HTS 3.9, AF4-AF9 inh -16.6, Vif A3G 3.4%, T cruzi inh -10.6, rRNA inh HTS OD600 5.7 and rRNA inh HTS RFP 0.2.
For CCOC(=O)/C(C#N)=C/N=c1ccc(C)cn1C the results were A1 inh 1.7, Beta apoptosis -2.2, Calb FLC -1.9, RanGTP-Imp inh inconclusive, rRNA inh HTS -4.7, AF4-AF9 inh -5.1, T cruzi inh 0.9, rRNA inh HTS OD600 -6.2 and rRNA inh HTS RFP -3.9.
For CC(=O)c1cccc(NCC(=O)Nc2cc(S(=O)(=O)N3CCCCC3)ccc2C)c1 the results were A1 inh -0.6, Beta apoptosis -0.6, Calb FLC -15.2, RanGTP-Imp inh -3.9, rRNA inh HTS 1.6, AF4-AF9 inh 1.1, Vif A3G -6.2%, T cruzi inh 17.0, rRNA inh HTS OD600 -9.3 and rRNA inh HTS RFP 4.9.
`CCc1cc(=O)oc2cc(OCC(=O)NCCCN3CCCC3=O)ccc12` gave A1 inh -0.6, Beta apoptosis -0.7, Calb FLC 1.9, RanGTP-Imp inh -1.3, rRNA inh HTS 1.2, AF4-AF9 inh 1.0, Vif A3G -7.1%, T cruzi inh -12.1, rRNA inh HTS OD600 2.7 and rRNA inh HTS RFP -1.0.
For O=C(NC1CCCCC1)N1CCN(CCc2ccccc2)CC1 the results were A1 inh 0.3, Beta apoptosis 1.2, Calb FLC -9.6, RanGTP-Imp inh 0.3, Vif A3G -2.0% and T cruzi inh -4.6.
COc1ccccc1OC(=O)c1cc2ccccc2oc1=O was read as A1 inh 0.4, Beta apoptosis -8.6, Calb FLC -12.2, RanGTP-Imp inh -2.8, rRNA inh HTS 17.6, AF4-AF9 inh -5.8, T cruzi inh 2.5, rRNA inh HTS OD600 11.4 and rRNA inh HTS RFP 4.0.
O=C(COC(=O)CCC(=O)c1cccs1)Nc1ccccc1[N+](=O)[O-] was read as A1 inh 0.2, Beta apoptosis -4.2, Calb FLC -1.6, RanGTP-Imp inh -5.6, rRNA inh HTS 18.8, AF4-AF9 inh -3.3, Vif A3G -12.6%, T cruzi inh -1.3, rRNA inh HTS OD600 20.2 and rRNA inh HTS RFP 2.3.
`Cn1nnnc1Sc1ncnc2scc(-c3ccccc3Cl)c12` gave A1 inh 1.1, Beta apoptosis -18.5, rRNA inh HTS 4.8, AF4-AF9 inh -21.4, rRNA inh HTS OD600 -0.5 and rRNA inh HTS RFP 4.1.
Screening N#CCCN1CCN(C(=S)c2ccc(-c3ccc(Cl)c(Cl)c3)o2)CC1 returned A1 inh 1.4, Beta apoptosis 1.9, Calb FLC 8.5, RanGTP-Imp inh -3.2, Vif A3G -6.2% and T cruzi inh 42.4.
`Cc1ccc(S(=O)(=O)Nc2cccc(-c3ccc4nnc(C)n4n3)c2)s1` gave A1 inh 0.3, Beta apoptosis -2.5, Calb FLC 6.9, RanGTP-Imp inh -0.8, rRNA inh HTS -3.0, AF4-AF9 inh -2.8, Vif A3G 6.3%, T cruzi inh 12.1, rRNA inh HTS OD600 11.0 and rRNA inh HTS RFP -2.5.
For Cc1ccc(NC(=O)c2nsc(Cl)c2Cl)cc1 the results were A1 inh -3.1, Calb FLC -12.4, RanGTP-Imp inh 4.0, rRNA inh HTS 16.5, T cruzi inh -3.6, rRNA inh HTS OD600 6.3 and rRNA inh HTS RFP 1.1.
Screening Cc1noc(C)c1NC(=O)N(C)C[C@@H]1Oc2c(NC(=O)NC(C)C)cccc2C(=O)N([C@@H](C)CO)C[C@@H]1C returned A1 inh -1.2, Beta apoptosis -5.4, rRNA inh HTS 2.2&33.0, AF4-AF9 inh -3.5&-1.9, Vif A3G 2.1%, rRNA inh HTS OD600 16.1&19.1 and rRNA inh HTS RFP -1.6&9.3.
Screening O=C(CCc1nnc(C2(c3ccc(Cl)cc3)CCC2)o1)NCCCn1cccn1 returned A1 inh 1.6, Beta apoptosis -14.6, Calb FLC -0.7, RanGTP-Imp inh 1.6, rRNA inh HTS -0.8, AF4-AF9 inh -33.5, Vif A3G 2.8%, T cruzi inh 8.5, rRNA inh HTS OD600 -5.8 and rRNA inh HTS RFP -6.1.
O=c1cc(N2CCN(c3ccccc3Cl)CC2)[nH]c(=O)n1Cc1ccc(F)cc1 was read as A1 inh -0.4, Beta apoptosis 10.2, Calb FLC 28.1, RanGTP-Imp inh 7.8, rRNA inh HTS 0.0, AF4-AF9 inh 17.1, Vif A3G 1.1%, T cruzi inh 5.3, rRNA inh HTS OD600 3.0 and rRNA inh HTS RFP 2.3.
Screening Cn1c(/N=C/c2c[nH]c3ccccc23)nc2ccccc21 returned A1 inh -0.3, Beta apoptosis -1.8, Calb FLC 7.6, RanGTP-Imp inh 0.0, Vif A3G 2.4% and T cruzi inh -9.4.
Screening Cc1cc(Br)ccc1NC(=O)CN(C)C(=O)CSC(=S)N1CCCC1 returned A1 inh 0.8, Beta apoptosis -3.2, rRNA inh HTS -1.0, AF4-AF9 inh 1.6, rRNA inh HTS OD600 5.4 and rRNA inh HTS RFP -0.9.
`NC(=S)N/N=C/c1cc([N+](=O)[O-])ccc1Cl` gave A1 inh 0.4, Beta apoptosis -1.9, Calb FLC -19.0, RanGTP-Imp inh 2.6, rRNA inh HTS 0.5, AF4-AF9 inh -1.6, Vif A3G -0.2%, T cruzi inh 7.7, rRNA inh HTS OD600 4.5 and rRNA inh HTS RFP -0.1.
For O=C(CN1C(=O)C2C3C=CC(C3)C2C1=O)OCC(=O)c1ccc(Cl)cc1 (stereo not given) the results were Calb FLC -8.8, RanGTP-Imp inh 0.8, AF4-AF9 inh -1.2, Vif A3G -5.0% and T cruzi inh 1.2.
`Cc1cc(NC(=O)Cn2nc(C(=O)O)c3ccccc3c2=O)ccc1Br` gave A1 inh 0.4, Beta apoptosis 0.5, Calb FLC 9.8, RanGTP-Imp inh -0.3, rRNA inh HTS -1.8, AF4-AF9 inh -1.1, T cruzi inh -16.5, rRNA inh HTS OD600 10.7 and rRNA inh HTS RFP -4.2.
For COc1ccc(C2C(C#N)=C(N)Oc3cc4c(cc32)OCO4)cc1 (stereo not given) the results were A1 inh 0.5, Beta apoptosis -6.1, Calb FLC 13.5, RanGTP-Imp inh 25.0*, Vif A3G 9.5% and T cruzi inh -9.2.
Screening N#C/C=C/C(=C\Nc1ccc(Cl)cc1)S(=O)(=O)c1ccccc1 returned A1 inh -0.8, Beta apoptosis -3.7, Calb FLC 0.3, RanGTP-Imp inh -2.1, rRNA inh HTS 10.6, AF4-AF9 inh -3.7, Vif A3G 1.5%, T cruzi inh -3.6, rRNA inh HTS OD600 -3.6 and rRNA inh HTS RFP -2.7.
`Cc1nccn1CCCNC(=O)C1CCC(=O)N(Cc2ccccc2F)C1` (stereo not given) gave Calb FLC 7.0, RanGTP-Imp inh 5.3, rRNA inh HTS 11.0, AF4-AF9 inh -0.5, T cruzi inh -20.6, rRNA inh HTS OD600 11.8 and rRNA inh HTS RFP 1.0.

From PubChem
